YjeE inh – inhibitors of E. coli YjeE (TsaE). AID 605. purified YjeE, fluorescence polarisation of a bound ADP probe. Potency, µM. P0AF67. 0.05% of 71,000 active; active = well fitted falling curve; inconclusive = weaker or top-dose-only fall, or a rising curve; inactive = flat or poorly fitted curve;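 also: top concentration of the series not given in the record; excess ADP was the control for the full effect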
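Fluorescence polarization of a BODIPY Texas Red–ADP probe (2 uM) bound to purified YjeE (10 uM) was read after 15 min room-temperature incubation with compounds. Loss of polarization marks inhibitors; ADP serves as titrated control.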
Bst PK mod – modulators of Bacillus stearothermophilus pyruvate kinase; partly purified Bacillus stearothermophilus pyruvate kinase, luminescence ATP production; ribose 5-phosphate activator present at AC10; Potency, µM; 1.2% of 51,000 active; AID 361; in the data active means potency below about 11 µM; inconclusive means mostly about 12 µM to 25 µM; inactive means weaker than that;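 the screen sought inhibitors and activators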;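 also: potency is read from the fitted curve at half-maximal effect; scaled between full activation by ribose 5 phosphate and full inhibition by luteolin; about four in five hits inhibit and the cells do not say which; series up to 57 µM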
* marks the source's active call; other numbers are inactive results; i = inactive; ? = inconclusive; nt = no result given.

Every second line gives: YjeE inh, Bst PK mod
1	O=C(c1ccccc1)N1CC(COc2ccccc2)OC(c2ccco2)O1 (centres undefined)
    i, >57
2	Cc1noc(C)c1COC(=O)c1ccc2c(c1)S(=O)(=O)c1ccccc1C2=O
    i, >57
3	CN(C)Cc1nsc(N(C)C)n1
    i, nt
4	CC(=O)N=C1SC2CS(=O)(=O)CC2N1c1c(Cl)cccc1Cl (centres undefined)
    i, nt
5	COC(=O)CSc1ccc2c(N)c(C(=O)OC)sc2c1
    i, i
6	C=CCn1c(SCC(=O)NCc2cccs2)nnc1C1CCCCC1
    i, >57
7	N[C@@H](Cn1cc(F)c(=O)[nH]c1=O)C(=O)O
    i, nt
8	CC(=O)C1=C(c2ccccc2)NC(=O)NC1c1ccccc1OCC#N (centres undefined)
    i, >57
9	COc1cc(S(=O)(=O)N2CCCCCC2)ccc1Cl
    i, >57
10	Cc1cc(C)c(S(=O)(=O)N(CC(=O)N2CCOCC2)C2CCCCC2)c(C)c1
    i, >57
11	O=C(Nc1nncs1)c1cccc(S(=O)(=O)N2CCCC2)c1
    i, >57
12	CCOC(=O)N1CCN(C(=O)C2CCC(CNS(=O)(=O)c3ccccc3)CC2)CC1 (centres undefined)
    i, >57
13	O=C(CCN1C(=O)C2C3C=CC(C3)C2C1=O)N1CCN(c2cccc(Cl)c2)CC1 (centres undefined)
    i, >57
14	O=C(Nc1ccc2c(c1)OCCO2)c1cccc(S(=O)(=O)N2CCOCC2)c1
    i, nt
15	COC(=O)CSc1nnc(Cc2cc(=O)[nH]c(=O)[nH]2)n1-c1cccc(OC)c1
    i, >57
16	O=C(c1ccc(Cl)s1)N1CCc2ccccc21
    i, nt
17	O=C(c1ccc(N2CCOCC2)nc1)N1CCOCC1
    i, >57
18	CCOC(=O)Cn1c(=O)c2c(nc3n2CCN3Cc2ccccc2)n(C)c1=O
    i, >57
19	O=C1CCCC2=C1C1(CCCC1)N=C(Nc1nc3ccccc3s1)N2
    i, >57
20	CCOc1ccccc1OC(=O)c1ccco1
    i, >57
21	COc1ccc2c(c1)C1(C)CC(C)(C)N2C(=O)N1c1ccccc1 (centres undefined)
    nt, >26
22	Cc1noc(NS(=O)(=O)c2ccc(NC(=O)c3ccoc3C)cc2)c1C
    i, >57
23	Cc1cc(NC(=O)CSc2nnc(CNc3ccc(F)cc3)n2C2CCCCC2)no1
    i, >57
24	CCOc1ccc(OCC)c(NC(=O)CSc2nc3cccnc3n2C)c1
    i, nt
25	Cc1ccc(N=Nc2c(O)c3ccccc3[nH]c2=O)c(S(=O)(=O)N(C)C)c1
    i, nt
26	Cc1ccccc1-c1nnc(SCC(=O)Nc2ccc3c(c2)OCCO3)n1N
    i, >57
27	CCC(=O)Nc1c(C#N)c2nc3ccccc3nc2n1-c1ccccc1C
    i, >57
28	CCn1c(SCC(N)=O)nc2c1c(=O)n(C)c(=O)n2C
    i, >57
29	O=C(NCCN1C(=O)C2C3C=CC(C3)C2C1=O)Nc1ccc(Br)cc1 (centres undefined)
    i, nt
30	O=C(COC(=O)c1cn(-c2ccccc2)nc1-c1cccs1)NC1CC1
    i, >57
31	COc1ccc(N2C(=O)CSC2c2cccc(F)c2)c(OC)c1 (centres undefined)
    i, >57
32	O=C1OCCC1N1C(=O)c2ccccc2S1(=O)=O (centres undefined)
    i, >57
33	O=C(NC(=O)c1cccc(F)c1)OC[C@@H]1CCCN2CCCC[C@H]12
    i, nt
34	CCOCCn1c(=O)c2c(nc3n2CCN3c2ccc(C)cc2)n(C)c1=O
    i, >57
35	O=C(Cn1c(=O)oc2cc(S(=O)(=O)N3CCc4ccccc43)ccc21)N1CCCCC1
    i, nt
36	O=C(Nc1ccc([N+](=O)[O-])cc1Cl)c1cc(Cl)ccc1O
    i, nt
37	O=S(=O)(Nc1nc2ccccc2[nH]1)c1ccccc1
    i, >57
38	COC(=O)c1cc(NCc2cccs2)ccc1N1CCOCC1
    i, >57
39	C#CC(C)(C)NC(=O)CSc1nc2c(c(=O)n(C)c(=O)n2C)n1CCCC
    i, nt
40	CCN(CCNC(=O)CS(=O)(=O)Cc1nc(-c2cccc(OC)c2)oc1C)c1ccccc1
    i, >57
41	CC(C)N(C(=O)NC(=O)NCC1CCCO1)S(C)(=O)=O (centres undefined)
    i, >57
42	COc1ccc(OCCCC(=O)Nc2nnc(C3CCCO3)s2)cc1 (centres undefined)
    i, >57
43	Cc1cccc(NC(=O)c2cccnc2)c1
    i, nt
44	COc1ccc2[nH]cc(CCN=C3SCC(=O)N3C)c2c1
    i, >57
45	CC1CCc2nn(CC(=O)NCCN3CCOCC3)cc2C1 (centres undefined)
    i, nt
46	CC1=CC(=C2C(=O)c3ccccc3C2=O)C=C(C)N1C
    i, nt
47	Cc1nc(SCC(=O)N2CCC(C(N)=O)CC2)n[nH]1
    i, >57
48	O=C(CSc1nc2ccccc2s1)Nc1ncccn1
    i, >57
49	CCOc1ccccc1NC1c2ccccc2C(=O)N1c1ccc(C)cn1 (centres undefined)
    i, nt
50	COc1cc(C(=O)N2CCC(NC(=O)C(Cc3ccc(C)cc3)NC(C)=O)CC2)cc(OC)c1OC (centres undefined)
    i, >57
51	O=C1Nc2c(Br)cc(Br)cc2C1(O)N1CCOCC1 (centres undefined)
    i, 8.1*
52	CC1Cc2nc(SCC(=O)NCC3CCCO3)n(Cc3ccccc3)c(=O)c2S1 (centres undefined)
    i, >57
53	CN1CCC(NC(=O)c2cccs2)CC1
    i, nt
54	CCCC(=O)c1cc2cc(Cl)ccc2oc1=O
    i, >57
55	COc1ccc(CNC(=O)CSc2nc3nc(C)cc(C)n3n2)cc1
    i, >57
56	CCC(C)c1c(O)nc(SCC(=O)N2CCOCC2)[nH]c1=O (centres undefined)
    i, nt
57	Cc1ccc2c(c1)N(CC(=O)N(Cc1ccc3c(c1)OCO3)CC1CCCO1)C(=O)C(C)O2 (centres undefined)
    i, >57
58	COc1cccc(Nc2c(F)c(OC)c(F)c(F)c2C(=O)O)c1
    i, >57
59	CC1(C)CC(=O)C=C(Nc2cccc(O)c2)C1
    i, nt
60	CC(C)COC(=O)CCn1[nH]c(=O)c2ccccc2c1=O
    i, >57

Later entries
Every second line gives: YjeE inh, Bst PK mod
61	Nn1cc(-c2ccccc2)nc1SCC(=O)NCCN1C(=O)CSC1=O
    i, >57
62	Cc1[nH]c(=S)[nH]c(=O)c1Cc1ccccc1
    i, >57
63	COc1ccc(OC)c(NC(=O)CSc2nnc(Cc3cccn3C)n2CCc2ccccc2)c1
    i, >57
64	O=C(Nc1ccccc1)N1CC[C@@]2(CCCN(C(=O)c3cccc(F)c3)C2)C1
    i, nt
65	CC12C=CC3(CN(Cc4ccccc4)C(=O)C3C1C(=O)NC1CC1)O2 (centres undefined)
    i, >57
66	CC(C)NC(=O)C1CCN(Cc2cnn(-c3ccccc3)c2-n2cccc2)CC1
    i, >57
67	CN(c1cccc(NS(=O)(=O)c2cccs2)c1)S(C)(=O)=O
    i, >57
68	COC(=O)c1cc(=O)nc2sc(-c3ccc(F)cc3)nn12
    i, nt
69	COc1cc(C2NC(=O)NC(C)=C2C(=O)OCc2ccc(C)cc2)cc(OC)c1O (centres undefined)
    i, nt
70	O=C(CSc1n[nH]c(-c2cccs2)n1)NCc1cccs1
    i, >57
71	Cn1nnnc1SCCNCc1cccnc1
    i, >57
72	O=C1Nc2cc(Cl)ccc2C1(N1CCNCC1)C(F)(F)F (centres undefined)
    i, >57
73	CCCOC(=O)c1ccc(NC(=O)c2ccoc2C)cc1
    i, nt
74	O=C(c1ccco1)N1CCN(C/C=C/c2ccccc2)CC1
    i, >57
75	COc1cccc(-n2nnc3c(=O)n(Cc4cccc(C)c4)cnc32)c1
    i, nt
76	O=C(COC(=O)CCC(=O)c1cccs1)Nc1ccc(S(=O)(=O)N2CCOCC2)cc1
    i, >57
77	COc1ccc(C(=O)N2CCC3(CCCN(C(c4ccccc4)c4ccccc4)C3)CC2)cc1
    i, nt
78	CC(C)c1cc(C(F)(F)F)n2nc(C(=O)Nc3ccc4c(c3)OCO4)cc2n1
    i, nt
79	COc1ccc(CCNc2cc(=O)[nH]c(N)n2)cc1
    i, >57
80	C=CCNC(=O)c1ccccc1NC(=O)Nc1ccccc1
    i, nt
81	COc1ccc(Br)cc1-c1noc(-c2ccccc2)n1
    i, >57
82	CCN(CC)C(=O)c1ccc(C)c(Br)c1
    i, nt
83	O=C(Nc1ccc(S(=O)(=O)N2CCc3ccccc32)cc1)c1ccc2c(c1)OCO2
    i, >57
84	CCOC(=O)c1[nH]c(C)c(C(=O)NC2CCCC2)c1C
    i, nt
85	CCCC(=O)Nc1ccc(S(=O)(=O)Nc2cc(C)nc(C)n2)cc1
    i, >57
86	Cn1c(-c2ccc3c(c2)OCO3)cnc1NCc1ccc(Cl)cc1
    i, >57
87	Cc1occc1C(=O)Nc1cc(C(C)(C)C)on1
    i, nt
88	CC(C)[C@]1(Cl)CC[C@@H]2[C@]3(C)CCC[C@@](C)(C(=O)O)[C@H]3C[C@H](Cl)[C@@]2(Cl)[C@H]1Cl
    i, nt
89	COc1nc(-c2ccccc2)cc(C(F)(F)F)n1
    i, >57
90	CCCOc1ccc(-c2nnn(CC(=O)OCC)n2)cc1
    i, >11
91	N=c1oc2c3c4c(cc2cc1C(=O)Nc1ccccc1)CCCN4CCC3
    i, >57
92	COc1ccc2oc(-c3ccccc3)c(C(N)=O)c2c1
    i, nt
93	O=C(Cn1cc2c(n1)CCCCC2)Nc1ccc(F)cc1F
    i, nt
94	CS(=O)(=O)NC1c2cccc3cccc(c23)C1Sc1nncn1/N=C/c1ccco1 (centres undefined)
    i, ?
95	Cc1ccc(NC(=O)CS(=O)CC(=O)NC2CCN(Cc3ccccc3)CC2)c(C)c1 (centres undefined)
    i, >57
96	CCOC(=O)C1CCN(c2ncnc3c2oc2ccc(Cl)cc23)CC1
    i, ?
97	CCOC(=O)C1=C(CNCCc2ccc(Cl)cc2)NC(=O)NC1c1ccc2c(c1)OCO2 (centres undefined)
    i, >57
98	N#Cc1cccc(NC(=O)CC2CCCCC2)c1
    i, nt
99	Cc1ccc(Cl)cc1N1CCN(C(=O)C2CCN(S(=O)(=O)c3cccnc3)CC2)CC1
    i, >57
100	CC1(C)Cc2c(C#N)c(OCC(=O)c3ccc(Cl)cc3)nc(-c3ccco3)c2CO1
    i, >57
101	C=C[C@@]1(C)CC(=O)[C@@]2(O)[C@@]3(C)[C@@H](O)CCC(C)(C)[C@@H]3[C@H](OC(=O)CCN(C)C)[C@H](OC(C)=O)[C@@]2(C)O1
    i, nt
102	O=c1ccc2ccc(OCc3nnc(-c4ccccc4Br)o3)cc2o1
    i, >57
103	CCOC(=O)c1sc(NC(=O)C(CC)Sc2nnc3c4ccccc4n(CC)c3n2)nc1C (centres undefined)
    i, >57
104	CC1CCN(C(=O)c2cccc(S(=O)(=O)N3CCCCC3)c2)CC1
    i, >57
105	CC1(C)CC(O)C(CCC(O)c2ccccc2)C(C)(C)N1 (centres undefined)
    i, >57
106	CC(C)C(c1nnnn1CCc1ccccc1)N1CCN(C(=O)c2ccco2)CC1 (centres undefined)
    i, >57
107	O=C(C1CC1)N1CCc2cc(Br)cc(S(=O)(=O)NCCN3CCOCC3)c21
    i, >57
108	c1cncc(-c2nnc3n2CCC3)c1
    i, >57
109	COc1ccc(-c2noc(-c3ccccc3C(=O)NCc3ccco3)n2)cc1
    i, >57
110	CCC(C)(C)NC(=O)C(OC(=O)c1cc2sccc2n1C)c1ccc(OC)cc1 (centres undefined)
    i, >57
111	COc1ccc(OC)c(NC2=NC3(CCCC3)N=C(N)N2)c1
    i, >57
112	O=C(Nc1cccc(Br)c1)c1cc2ccccc2o1
    i, nt
113	COC(=O)[C@H](C)NC(=O)NCc1ccco1
    i, >57
114	CCCS(=O)(=O)N1CCCC(C(=O)NCCN(C)Cc2ccccc2)C1 (centres undefined)
    i, >57
115	COc1cccc(N2CCN(c3ncccn3)CC2)c1
    i, nt
116	COc1ccc2c(c1)OC(O)(C(F)(F)F)CC2=O (centres undefined)
    i, nt
117	COc1cccc(-c2cc(C(=O)NC3CCCC3)no2)c1
    i, i
118	CC(=O)c1ccc(NC(=O)CSc2nc3nc(C)cc(C)n3n2)cc1
    i, nt
119	COC(=O)[C@H](CCSC)NC(=O)Nc1ccc(OC)cc1
    i, >57
120	Cc1noc(C)c1S(=O)(=O)N(CCc1ccccc1)Cc1ccccc1
    i, >57

Brought forward from above: 5 entries, then new ones.
Every second line gives: YjeE inh, Bst PK mod
116	COc1ccc2c(c1)OC(O)(C(F)(F)F)CC2=O (centres undefined)
    i, nt
117	COc1cccc(-c2cc(C(=O)NC3CCCC3)no2)c1
    i, i
118	CC(=O)c1ccc(NC(=O)CSc2nc3nc(C)cc(C)n3n2)cc1
    i, nt
119	COC(=O)[C@H](CCSC)NC(=O)Nc1ccc(OC)cc1
    i, >57
120	Cc1noc(C)c1S(=O)(=O)N(CCc1ccccc1)Cc1ccccc1
    i, >57
121	c1ccc2c(c1)oc1c(Nc3ccc(CN4CCOCC4)cc3)ncnc12
    i, i
122	Cc1ccc(C(=O)O)cc1S(=O)(=O)NCC1CCCO1 (centres undefined)
    i, >57
123	CS(=O)(=O)N1CCC2(CCCN(C(=O)Nc3ccccc3)C2)CC1
    i, nt
124	NCCNc1ncnc2ccc(Cl)cc12
    i, nt
125	COc1ccc(NC(=O)N2CCC3(CC2)CCN(S(=O)(=O)c2ccccc2)CC3)cc1
    i, nt

Bioassay records: PubChem BioAssay, National Center for Advancing Translational Sciences (NCATS)

This is a subset. The share of hits here may be higher or lower than overall.
